RanGTP-Impb inh = disruptors of Ran-importin-beta complex formation – biochemical, FRET, CFP-Ran, YFP-importin-beta, homogeneous, primary screen | cell-free CFP-Ran/YFP-importin-beta FRET ratio | inhibition, % (no concentration beside the values) | 300,000 tested, 1.1% active | AID 2216;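 active = most replicates above 15%; inconclusive = exactly half above 15%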;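 also: 0% = DMSO wells and 100% = Ran loaded with GDP instead of GTP; wells of about 40 µL received 100 nL stock; the first replicate is given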
FGF22 binding = binders of recombinant human FGF22 by thermal shift; Q9HCT0; SYPRO orange fluorescence; percent of sucrose octasulfate shift, DMSO zero; calls only at 9.99 µM; 340,000 tested, 1.5% active; AID 651658;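 active = melting point raised past a set limit in the mean and every replicate; inconclusive = no clear call; three in four hits are not shown here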
Target sequence (Q9HCT0 whole entry, looked up): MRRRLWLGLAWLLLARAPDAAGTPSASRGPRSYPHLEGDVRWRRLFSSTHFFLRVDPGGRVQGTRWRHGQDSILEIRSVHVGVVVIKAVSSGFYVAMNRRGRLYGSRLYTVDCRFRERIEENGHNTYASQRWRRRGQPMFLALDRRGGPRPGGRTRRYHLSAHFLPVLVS
MLL AF4-AF9 inh = blocks AF4 peptide binding to human AF9 | inhibition, % at 10 µM | 350,000 tested, 0.47% active | AlphaScreen, biotin-AF4 peptide binding to FLAG-AF9 | P42568;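 active = every replicate reaching a set inhibition limit, whatever the replicate mean, cut at about 25% in these data; inconclusive = mean inhibition reaches that limit but some replicates miss it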;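 also: 0% = plate neutral control median and 100% = total signal loss; the record names both 10 and 1 µM as test concentration; the first replicate is given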
HNF4A DNA FP = change in binding of human HNF4 alpha to DNA | P41235 | HNF4a-FITC DNA binding, fluorescence polarization, 1 h | activity change, % at 10 µM | 360,000 tested, 0.3% active | AID 1224865; in the data active = activity change above about 30%, passing the limit was not always enough;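 also: controls were the assay level and a saturating level of protein; the project sought stronger binding though the title names inhibitors; some compounds called inactive have numbers as strong as hits; positive values seem to mean higher polarization but the record does not say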
Target sequence (P41235 whole entry, looked up): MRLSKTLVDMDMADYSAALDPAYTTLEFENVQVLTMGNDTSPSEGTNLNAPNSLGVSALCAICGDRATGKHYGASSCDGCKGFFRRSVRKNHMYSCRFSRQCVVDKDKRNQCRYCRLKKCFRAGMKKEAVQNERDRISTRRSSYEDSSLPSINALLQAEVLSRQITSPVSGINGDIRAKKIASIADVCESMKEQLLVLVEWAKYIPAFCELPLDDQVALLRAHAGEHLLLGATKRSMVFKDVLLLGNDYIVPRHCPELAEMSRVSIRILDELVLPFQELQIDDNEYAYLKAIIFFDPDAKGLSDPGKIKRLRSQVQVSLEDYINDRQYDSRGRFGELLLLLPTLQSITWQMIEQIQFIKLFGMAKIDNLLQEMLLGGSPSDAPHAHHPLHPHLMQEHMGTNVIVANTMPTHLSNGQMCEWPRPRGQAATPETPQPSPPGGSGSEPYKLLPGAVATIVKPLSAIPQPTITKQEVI
UCH37 DUB inh = blocks the human deubiquitinase UCH37 | inhibition, % (test concentration not listed) | 330,000 tested, 0.33% active | Q9Y5K5 | purified proteasome/UCH37, Ub-AMC cleavage fluorescence | AID 588478;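 active = mean of two replicates above 20%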;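 also: 0% = compound-free wells with enzyme and 100% = wells lacking proteasome; stock transfer was 100 nL into about 20 µL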
Target sequence (Q9Y5K5 whole entry, looked up): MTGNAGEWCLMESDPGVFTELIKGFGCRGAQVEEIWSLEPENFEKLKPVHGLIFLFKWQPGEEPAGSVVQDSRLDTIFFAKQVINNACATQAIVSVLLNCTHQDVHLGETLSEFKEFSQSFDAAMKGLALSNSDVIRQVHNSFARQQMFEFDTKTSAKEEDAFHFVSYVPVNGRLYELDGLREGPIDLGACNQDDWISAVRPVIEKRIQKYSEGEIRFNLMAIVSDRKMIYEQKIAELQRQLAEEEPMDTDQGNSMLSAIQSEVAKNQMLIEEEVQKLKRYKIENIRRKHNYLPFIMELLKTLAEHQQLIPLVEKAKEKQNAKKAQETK
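assay system = human UCH37 enzyme supplied as purified proteasome complex | amount = proteasome at 0.15 nM in the dispensed enzyme solution | schedule = 30 min compound-proteasome preincubation then 25 min substrate reaction, room temperature | measured by = fluorescence, ex 355 nm, em 460 nm | benchmarks = no-proteasome wells (full inhibition) and compound-free wells (no inhibition)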
E coli growth = inhibitors of Escherichia coli growth | 330,000 tested, 0.21% active | OD600, 23 h; stronger effect = lower value | OD600 absorbance (no concentration beside the values);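 active = OD600 absorbance below the run mean of sample wells minus 3.6 SD, in any replicate, cut at about 0.56 in these data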;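 also: stock transfer was 300 nL into about 60 µL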
Vif A3G = HIV-1 Vif–A3G interaction blockers – biochemical, TR-FRET, GST-Vif 1-94, biotin-A3G peptide, dose response retest, primary screen (AID 1117319); inhibition, %, or IC50 in µM where a hit was titrated; 260,000 tested, 0.57% active; TR-FRET GST-Vif / biotin-A3G peptide binding; higher % means a stronger effect; test concentration not given here; strong numbers were not always called active;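 active = above the screen mean plus three standard deviations and confirmed in dose response; inconclusive = results disagree or hit not tested in dose response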;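 also: Vif residues 1-94 fused to GST binding biotinylated APOBEC3G peptide 110-148; 0% = full assay without inhibitor and 100% = GST in place of GST-Vif; retest series ran down from 100 µM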
* marks the source's active call; other numbers are inactive results; i = inactive; ? = inconclusive; · = not tested or not shown; & = joins results of further samples.

RanGTP-Impb inh,FGF22 binding,MLL AF4-AF9 inh,HNF4A DNA FP,UCH37 DUB inh,E coli growth,SMILES,Vif A3G
?,i,0.8,1.4,3.7,0.66,CCc1nc2ccc(Cc3ccc4nc(CC)[nH]c4c3)cc2[nH]1,108%
1.4,·,·,0.9,1.1,0.76,Cc1nnc(NC(=O)c2ccc(S(=O)(=O)N3CCCCCC3)cc2)o1,2%
·,i,0.3,-5.6,·,·,Cc1cccc(NC(=O)c2nc[nH]c2C(=O)N[C@H](C)CO)c1,·
-3.1,i,0.6,0.9,9.7,0.76,CC1OC(OC2C(Oc3c(-c4ccc(O)cc4)oc4cc(O)cc(O)c4c3=O)OC(COC3O[C@@H](C)[C@H](O)[C@@H](O)C3O)C(O)C2O)C(O)C(O)C1O (stereo partly specified),·
·,i,-0.3,-0.2,1.5,0.69,CCCCOc1ccc(C(=O)NCC(=O)NCC(c2ccc(OC)cc2)N2CCOCC2)cc1 (stereo unspecified),-1%
-1.9,i,0.8,0.1,-0.5,0.69,COc1ccc(OCC(O)CNS(=O)(=O)c2ccc(NC(C)=O)cc2)cc1 (stereo unspecified),·
·,i,0.8,-1.4,·,·,Cc1cc(C)c2c(=O)n3c(nc2c1)C(CC(C)C)NC(=O)c1cc2ccccc2cc1-3 (stereo unspecified),-11%
6.1,i,-1.1,2.2,4.0,0.7,COc1ccccc1Cn1c(=S)[nH]c2cc(C(=O)NC(C)C)ccc2c1=O,-14%
·,i,-1.9,-1.5,·,·,CCCCN1C(=O)C(CC(=O)NCC2CCCCC2)CC(C(=O)N2CCOCC2)=C1C (stereo unspecified),3%
4.2,·,·,-3.4,4.9,0.67,CCOC(=O)c1cn(-c2ccccc2)nc1-c1cccnc1,-2%
-2.0,i,-8.1,3.8,-0.2,0.62,CCOC(=O)CSc1nc2cc(C(=O)NCc3ccco3)ccc2c(=O)n1C1CCCCC1,-4%&-5%
·,i,-1.5,-0.3,·,·,CCCCN(C(C)=O)c1c(CC)nc2ccc(C(=O)Nc3cccc(OCC(=O)N(C)C)c3)cn12,·
2.7,·,·,-0.4,-0.4,0.71,COc1ccc(Cl)cc1Nc1nc(C)cc(=O)[nH]1,2%
·,i,-3.7&-1.2,-0.6,·,·,C[C@@H]1CN([C@H](C)CO)C(=O)c2cc(Br)cnc2O[C@@H]1CN(C)C(=O)c1cccc(F)c1,·
5.4,·,·,-1.9,-1.1,0.78,CCN(CC)C(=O)C1CCN(c2ncnc3c2cnn3-c2ccc(C)cc2C)CC1,-5%&9%
-0.3,i,-13,·,-0.5,0.72,COC(=O)c1cc(=O)n(Cc2ccccc2)c(=NCc2ccccc2)s1,5%
0.1,i,0.0,-2.3,·,·,C=CCC1(CC=C)CCCN1C(=O)C1CCC(=O)N(CCc2ccc(Cl)cc2)C1 (stereo unspecified),·
·,i,6.5,-0.3,-3.2,0.65,CCN(C(=O)COn1nnc2ccc(S(=O)(=O)N(C)C)cc21)C1CCS(=O)(=O)C1 (stereo unspecified),-6%
-2.5,·,-2.3,0.6,0.1,0.63,Cc1ccc(OCC(=O)NCCS(=O)(=O)N2CCN(c3ccccc3)CC2)cc1,0%
·,i,-1.7,1.8,·,·,CCC(c1nnnn1-c1ccc2c(c1)OCCO2)N1CCN(CC)CC1 (stereo unspecified),·
-5.4,i,-0.8,2.0,-0.1,0.69,Cn1c(=O)c2c(nc(Oc3ccccc3Cl)n2C)n(C)c1=O,·
·,i,-2.5,4.2,·,·,CC1CCCC(NC(=O)COC(=O)c2ccc3c(c2)OCCO3)C1C (stereo unspecified),·
-1.8,i,-22,1.8,·,·,NC(=O)c1c(NC(=O)CSc2nc(N)cc(=O)[nH]2)sc2c1CCCC2,·
·,i,-0.9&-3.8,1.1,·,·,CCCN(C)C[C@H]1OCc2cnnn2CCCC(=O)N([C@H](C)CO)C[C@@H]1C,·
1.2,i,-1.7,-0.5,4.8,0.67,COC(=O)c1[nH]c2c(c1C)C(=O)CC(c1ccc(OC)c(OC)c1)C2 (stereo unspecified),-9%

Reprinted from the part before: 6 compounds; new compounds follow.
RanGTP-Impb inh,FGF22 binding,MLL AF4-AF9 inh,HNF4A DNA FP,UCH37 DUB inh,E coli growth,SMILES,Vif A3G
·,i,-1.7,1.8,·,·,CCC(c1nnnn1-c1ccc2c(c1)OCCO2)N1CCN(CC)CC1 (stereo unspecified),·
-5.4,i,-0.8,2.0,-0.1,0.69,Cn1c(=O)c2c(nc(Oc3ccccc3Cl)n2C)n(C)c1=O,·
·,i,-2.5,4.2,·,·,CC1CCCC(NC(=O)COC(=O)c2ccc3c(c2)OCCO3)C1C (stereo unspecified),·
-1.8,i,-22,1.8,·,·,NC(=O)c1c(NC(=O)CSc2nc(N)cc(=O)[nH]2)sc2c1CCCC2,·
·,i,-0.9&-3.8,1.1,·,·,CCCN(C)C[C@H]1OCc2cnnn2CCCC(=O)N([C@H](C)CO)C[C@@H]1C,·
1.2,i,-1.7,-0.5,4.8,0.67,COC(=O)c1[nH]c2c(c1C)C(=O)CC(c1ccc(OC)c(OC)c1)C2 (stereo unspecified),-9%
-0.4,·,·,0.6,2.4,0.76,O=C(Cc1ccccc1)NC(NC(=S)Nc1cc(Cl)ccc1Cl)C(Cl)(Cl)Cl (stereo unspecified),1%
3.8,·,·,4.4,·,·,Cc1ccc(-n2c(C)cc(/C=N/NC(N)=S)c2C)cc1,32%
-1.0,i,1.1,0.6,3.6,0.68,Cc1cc(=O)[nH]c2c1c(C)nn2C(C)(C)C,·
0.3,·,-2.2,0.5,4.8,0.69,CCOC(=O)N1CCN(C(=O)c2ccc3c(=O)n(-c4cc(OC)ccc4OC)c(=S)[nH]c3c2)CC1,29%
-3.3,·,·,1.7,-34,0.69,O=S(=O)(c1ccc(Cl)cc1)N1CCN(c2ccc(N3CCOCC3)nn2)CC1,7%
1.9,·,·,-2.5,3.5,0.73,COc1ccc(Nc2ncccc2C(=O)O)cc1,13%
0.2,·,·,-1.6,1.1,0.7,COc1ccc(C2C(C(=O)NCCN(C)C)c3cc(OC)c(OC)cc3C(=O)N2C)cc1OC (stereo unspecified),-3%
-1.4,i,-2.5,-0.7,1.4,0.69,Cc1ccc(NC(=O)COC(=O)c2ccccc2-c2nc3ccccc3s2)c(C)c1,-8%
5.1,i,-0.7,-0.6,0.0,·,COc1ccc2c(c1)CC[C@@H]1[C@@H]2CC[C@]2(C)[C@@H](C(C)=O)C[C@@H]12,·
0.2,i,-7.3,2.8,-2.1,0.72,CC(Oc1ccc(F)cc1)C(=O)N1CCN(c2ncccn2)CC1 (stereo unspecified),·
·,i,2.8,0.2,1.3,0.71,CSCCC(NC(=O)COc1ccccc1)C(=O)N1CC(C)CC(C)C1 (stereo unspecified),8%
·,i,0.6,-1.9,-2.9,0.69,Cc1ccc(CN(C)C(=O)CCNS(=O)(=O)c2ccccc2)o1,18%
3.0,i,5.8,-0.6,2.7,0.69,Cc1ccc(CNC(=O)c2ccc(C)s2)cc1,·
0.5,·,-3.7,-2.8,·,·,CC12CCC(C(=O)Nc3ccccc3Br)(C/C1=N\O)C2(C)C (stereo unspecified),3%
5.3,·,·,3.5,2.4,0.63,COCCCN(C(=S)Nc1ccc(C)cc1Cl)C(C)c1ccncc1 (stereo unspecified),-9%
·,i,-2.2,-0.5,·,·,COC(=O)[C@H]1C[C@H](OC(=O)NCc2ccccc2)[C@@]2(O)CN(S(=O)(=O)c3ccc(C)cc3)CC2[C@H]1C(=O)OC (stereo partly specified),1%
-1.7,i,0.1,0.9,-1.6,0.65,O=C(NCCCCCNC(=O)c1ccccn1)c1ccccn1,2%
·,i,2.1,-3.1,-1.0,0.7,CC1CC(C)CN(C(=O)C2CC(=O)N(c3ccc4c(c3)OCCO4)C2)C1 (stereo unspecified),·
-0.1,·,·,0.8,10,0.63,Cc1nn(C)cc1/C=C(/C#N)C(N)=O,2%
0.7,·,·,-3.1,0.2,0.71,CCn1cnc2sc(C(=O)N(Cc3ccc(N(C)C)cc3)Cc3ccco3)c(C)c2c1=O,-8%
-3.2,i,-0.5,-0.7,-12,0.7,CC(=O)Nc1ccc(NC(=O)CSc2nc3ccccc3nc2N2CCCCC2)cc1,-7%
?,i,6.1,-1.0,5.0,0.65,CCOC(=O)CNc1c(N2CCN(c3ccccn3)CC2)c(=O)c1=O,1%
2.5,·,·,·,-3.6,0.71,COc1cccc(NC(=O)CSc2nnc(-c3ccoc3C)n2-c2ccccc2)c1,1%
1.1,i,-0.6,5.5,3.3,0.73,CN(c1ccc(OCC(=O)Nc2nc3ccccc3s2)cc1)S(=O)(=O)c1ccccc1,16%
8.9,i,1.7,-3.2,0.9,0.66,O=C(CSc1ccc(-c2cccnc2)nn1)N1CCCCCC1,3%
-1.1,i,0.4,-4.2,0.3,0.67,COc1ccc(C(=O)NC2CCN(CC(=O)NCc3ccccc3F)CC2)cc1,·
1.6,·,·,-0.4,-1.4,0.71,CCOC(=O)CSc1nc2cc3c(cc2cc1CC)OCCO3,-4%
36*,·,-3.2,3.5,-29,0.66,NSc1nc(N)c2nc(-c3ccccc3)c(-c3ccccc3)nc2n1,-6%
3.2,·,·,-3.9,6.0,0.7,Nc1cc(=O)nc(SCC(=O)NC2CCCCC2)n1-c1ccccc1,-1%
-1.5,i,7.5,1.1,4.7,0.7,CCc1cc(C(=O)c2ccc(OC)cc2)c(NC(=O)CN2CCCCC2)s1,-3%
·,i,-4.3,-2.2,0.7,0.67,CN(C(=O)c1cccc(S(=O)(=O)N2CCOCC2)c1)c1c(N)n(Cc2ccccc2)c(=O)[nH]c1=O,19%
3.1,·,·,-1.1,·,·,COc1cc(/C=N\Nc2cc(=O)n(C)c(=O)n2C)ccc1O,?
-3.1,i,-1.9,-2.8,-7.9,0.73,Cc1cc(C(=O)OCC(=O)NC2CCS(=O)(=O)C2)c2ccccc2n1 (stereo unspecified),-3%
-9.8,i,-1.0,-2.2,-0.3,0.65,CCOC(=O)COc1ccc(C(=O)Nc2cccc(Cl)c2C)cc1,-4%
-0.9,i,-6.8,1.0,1.0,0.68,COc1ccccc1CCC(=O)Nc1cccc(S(=O)(=O)N2CCCCCC2)c1,2%
-2.0,i,-2.9,5.5,-3.0,0.71,CCC(=O)Nc1cc(-c2nc3ncccc3o2)ccc1Cl,-4%
-11,·,·,-3.5,·,·,O=C(N/N=C/c1cccc([N+](=O)[O-])c1)c1cc2c(ccc3ccccc32)o1,1%
·,i,-1.3,-0.9,·,·,CCOc1ccc(NC(=O)COc2ccc(N3CC(C(N)=O)CC3=O)cc2)cc1 (stereo unspecified),·
3.7,·,·,-8.2,-8.8,0.76,CCOC(=O)c1c(CN(CC)CC)oc2ccc(OC)cc12,1%
2.8,i,-1.3,-4.2,·,·,COCc1c(C(=O)N/N=C/c2ccc(C)o2)nnn1-c1nonc1N,-1%
-3.3,i,-0.1,2.5,6.9,0.7,O=C(CCN1C(=O)c2ccccc2C1=O)C1=NN[C@@H]2C(=O)N(c3ccc4c(c3)OCCO4)C(=O)[C@H]12,19%
5.4,i,-1.5,-1.2,1.5,0.7,Cc1ccc(N2C(=O)C3C=NNC3C2=O)cc1 (stereo unspecified),6%
-0.5,·,·,-2.0,5.0,0.71,CC(C)(Oc1ccc(Cl)cc1)C(=O)NCc1ccncc1,?
4.4,i,1.7,-0.1,3.7,0.66,COc1ccc(N(CC(=O)NC2CCCCC2)C(=O)c2ccc(C)s2)cc1OC,·
·,i,-0.4&-2.8,0.4,5.1,0.73,CC(C)NC(=O)Nc1ccc2c(c1)CC(=O)N([C@@H](C)CO)C[C@H](C)[C@@H](CN(C)C(=O)NC1CCCCC1)O2,-4%

Not all compounds are listed; count on the stated rates, not on these rows.
